Source: PubChem
Cruzain inh noDet: cruzain (T. cruzi) inhibition without detergent. P25779. purified cruzain, Z-FR-AMC fluorescence, no detergent. Potency, µM, for inactives: max response, negative = inhibition, most hits filed as inhibitors. 200,000 compounds, 2.3% hits. AID 1476;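 also: plate controls were enzyme without inhibitor for no effect and buffer without enzyme for full effect; nearly all actives have a fitted effect of over 40% in size; top concentration of the series not given in the record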
Target sequence (P25779 123-467 limits assumed): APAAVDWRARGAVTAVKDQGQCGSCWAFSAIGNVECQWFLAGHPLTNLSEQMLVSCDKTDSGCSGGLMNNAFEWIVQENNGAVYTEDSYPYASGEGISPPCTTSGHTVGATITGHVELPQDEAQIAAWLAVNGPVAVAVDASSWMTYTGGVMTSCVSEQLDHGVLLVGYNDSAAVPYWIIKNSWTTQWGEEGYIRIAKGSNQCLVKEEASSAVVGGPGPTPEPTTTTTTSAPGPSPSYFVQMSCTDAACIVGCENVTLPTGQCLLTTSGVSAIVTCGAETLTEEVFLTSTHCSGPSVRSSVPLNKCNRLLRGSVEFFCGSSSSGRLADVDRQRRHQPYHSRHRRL
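Detergent-free condition (0.00005% Triton X-100) in acetate buffer pH 5.5 with DTT. 1.5 nM enzyme and compound were pre-mixed 15 min, then 2 uM Z-FR-AMC substrate added; reaction progress from fluorescence change between first and third reads (60 s).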
Marburg entry inh: blocks Marburg virus binding to or entry into cells. AID 540276. 300,000 compounds, 1.8% hits. Marburg virus pseudotyped entry inhibition, cell reporter; control for the full effect not named in the record; about a third of the inactives were read at about 46 µM. Potency, µM (highest dose often 37.8 µM), inactives show at the highest dose activity change, negative = inhibition, hits mostly inhibitors; active = well fitted inhibition curve with a large enough effect; inconclusive = small, poorly fitted or top-dose-only effect, or effect the other way; inactive = flat fitted curve, though single readings scatter; tested in HEK293 cells; about a fifth of its hits are not listed in these tables; also: % is scaled to controls: 0 for no effect and ±100 for the full control effect; luciferase read-out
Cruzain inh Det: cruzain (T. cruzi) inhibition with detergent; Potency, µM, without a hit: max response, negative = inhibition, actives largely listed as inhibitors; purified cruzain, Z-FR-AMC fluorescence, 0.01% Triton; P25779; AID 1478; 200,000 compounds, 0.43% hits;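 also: plate controls were neutral wells for no effect and buffer without enzyme for full effect; nearly all actives have a fitted effect of over 40% in size; top concentration of the series not given in the record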
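Read-out: AMC fluorescence (360 nm excitation, 450 nm emission), four reads over 2 min, first-to-third difference used. Conditions: cruzain 1.5 nM, Z-FR-AMC 2 uM, pH 5.5 acetate, 5 mM DTT, 0.01% Triton X-100.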
2A StopGo: FMDV 2A StopGo reporter, luciferase signal; human cells with a luciferase reporter of 2A StopGo recoding; control for the full effect not named in the record; 410,000 compounds, 1.2% hits; AID 1159524; Potency, µM (series often up to 57.9 µM), inactives show at the top dose signal change, negative = less light; active = well fitted falling curve with a large enough effect; inconclusive = small, poorly fitted or top-dose-only effect; inactive = no such curve, though single readings can be large or run the other way; tested in HEK293T cells; also: % is scaled to controls: 0 for no effect and ±100 for the full control effect; nearly all actives have a fitted effect of over 45% in size; luciferase light after 4 h
NS1 inh: influenza NS1 inhibition; S. cerevisiae slowed by influenza A NS1, growth recovery by OD600; Potency, µM (titrated, usually from 46.1 µM), inactives show at the top dose activity, positive = more growth; 270,000 compounds, 0.4% hits; active means well fitted rising curve with a large enough effect; inconclusive means small, poorly fitted or top-dose-only effect; inactive means no such curve, though single readings can be large or run the other way; also: nearly all actives have a fitted effect of over 50% in size
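Recovery from NS1-induced slow growth read by OD600 in budding yeast switched to galactose assay medium (pH 6.0, -URA) at 1:100 dilution. Compound 23 nl per well; the matching strain lacking NS1 serves as control.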
SARS PLP yeast: inhibitors of SARS-CoV papain-like protease in yeast | S. cerevisiae expressing SARS-CoV PLpro, growth rescue; control for the full effect not named in the record | Potency, µM (doses to about 32.9 µM), for the others: at the top dose activity, positive = growth rescue | 330,000 compounds, 0.19% hits; active means well fitted rising curve with a large enough effect; inconclusive means small, poorly fitted or top-dose-only effect; inactive means no such curve, though single readings can be large or run the other way; also: 0% is about no effect; nearly all actives have a fitted effect of over 55% in size; growth read by luminescence after 48 h
RE007 growth inh: less growth of the S. pombe RE007 Vpr strain; 360,000 compounds, 0.21% hits; S. pombe RE007 Vpr strain, BacTiter-Glo ATP luminescence, 24 h; control for the full effect not named in the record; Potency, µM (doses to about 92.2 µM), inactives show top-dose activity change, negative = less growth; AID 651644; active = well fitted falling curve with a large enough effect; inconclusive = small, poorly fitted or top-dose-only effect; inactive = no such curve, though single readings can be large or run the other way;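 also: % is scaled to controls: 0 for no effect and ±100 for the full control effect; nearly all actives have a fitted effect of over 50% in size; the assay follows cell death caused by Vpr and the record does not say whether a fall means rescue or toxicity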
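Fission yeast strain RE007, carrying one chromosomally integrated HIV-1 vpr copy, was seeded at OD 0.01 in PMG+AL medium with 23 nL pinned compound. After 24 h at 30 °C and 99% humidity, viability was read by BacTiter-Glo luminescence.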
LASV entry inh: inhibitors of Lassa virus binding or cell entry; 300,000 compounds, 1.2% hits; Potency, µM (top dose mostly 37.9 µM), for the others: at the highest dose activity change, negative = inhibition, usual class: inhibitors; Lassa virus pseudotype entry inhibition, cell reporter; control for the full effect not named in the record; active means well fitted inhibition curve with a large enough effect; inconclusive means small, poorly fitted or top-dose-only effect, or effect the other way; inactive means flat fitted curve, though single readings scatter; tested in HEK293 cells; also: % is scaled to controls: 0 for no effect and ±100 for the full control effect; nearly all actives have a fitted effect of over 50% in size; luciferase read-out
* = called active by the depositor; u = inconclusive; x = not tested or not shown; & = joins results of further samples; [ ] = remark or other dose. Unless noted, calls follow the shape of the dose curve; as a rule, active = well fitted curve in the direction sought with a large enough effect; inconclusive = small, poorly fitted or top-dose-only effect, or another doubt; inactive = no such curve, though single readings can be large; an effect the other way counts as inactive or inconclusive. Potency is read from the fitted curve at half-maximal effect.

SMILES	Cruzain inh noDet	Marburg entry inh	Cruzain inh Det	2A StopGo	NS1 inh	SARS PLP yeast	RE007 growth inh	LASV entry inh
Cc1ccc(NC(=O)C(OC(=O)c2cc(C)oc2C)c2ccccc2)cc1 (stereo not drawn)	-7%	u	-7.7%	16%	5%	-24%	x	-6%
COc1ccc(CN2C(=O)c3ccccc3C2C(=O)NCCc2ccccc2)c(OC)c1 (stereo not drawn)	-2%	-7%&-29%[46.1 µM]	-4.9%	-11%&2%	x	5%	-4%	u
CCCC(=O)c1cc(CP(=O)(OCC)OCC)oc1C	x	x	x	-3%	6%	0%	8%	x
Cc1ccc(S(=O)(=O)N2CCOCC2)s1	x	12%[46.1 µM]	x	27%	10%	u	7%	-1%[46.1 µM]
Cc1ccc(S(=O)(=O)N2CCN(Cc3nc4sc(C)c(C)c4c(=O)[nH]3)CC2)cc1	0%	-18%	5.3%	x	17%	x	13%	-21%
COC(=O)C1=C(C)N(C2CCCC2)C(=O)C1(NC(C)=O)C(F)(F)F (stereo not drawn)	0%	-3%	4.8%	-14%	-5%	4%	-17%	20%
O=C1CCCC2=C1C(c1ccccc1O)C1=C(CCCC1=O)O2	-4%	u	-2.1%	-36%	-1%	u	-2%	-13%
C/C(=N/NC(=O)CNC(=O)Cc1ccc(Cl)cc1)c1ccco1	x	-2%[46.1 µM]	x	6%	6%	0%	1%	10%
Cc1ccccc1NC(=O)C(=O)NCCc1c[nH]c2ccccc12	x	x	x	0%	4%	-2%	-11%	x
CCOC(=O)c1c(C)oc2c1c(CN1CCN(C(=O)OCC)CC1)c(O)c1ccccc12	9%	-1%	-19%	-22%	-43%	-2%	-16%	16%
COc1ccc(-c2cc(C(=O)NC3CCCC3)c3ccccc3n2)cc1	x	x	x	16%	-25%	1%	5%	x
COc1ccc(OCc2nnnn2-c2ccccc2)cc1	6%	0%	3.4%	1%	1%	-2%	7%	3%
CC(C(=O)O)n1ncc2ccccc2c1=O (stereo not drawn)	x	x	x	-6%	-1%	1%	1%	x
Cc1ccc(NC(=O)C2CC(=O)Nc3nc4ccccc4n32)c(C)c1 (stereo not drawn)	x	0%	x	0%	-48%	4%	-9%	14%
CCn1ncc([C@@H]2C[C@H]3CN(Cc4cccc(Cl)c4)C(=O)[C@]34CCCN24)c1C	x	8%[46.1 µM]	x	-16%	3%	0%	-21%	-9%
COc1ccccc1NC(=O)c1ccc(C)c(S(=O)(=O)N2CCCCC2)c1	x	-27%	x	u	2%	6%	9%	u
FC(F)(F)c1cccnc1Oc1ccc(C2=NCCS2)cc1	x	-8%[46.1 µM]	x	28%	-3%	0%	-6%	3%
O=C(CSc1nnc(CNC(=O)c2cccc(C(F)(F)F)c2)o1)NCC1CCCO1 (stereo not drawn)	x	u	x	5%	10%	2%	-5%	1%
O=C(N/N=C/c1cn[nH]c1-c1ccc(Cl)cc1)c1ccc([N+](=O)[O-])cc1	x	3%[46.1 µM]	x	-13%	-3%	0%	-1%	7%
CC(C)N(C(=S)Nc1cccc(S(=O)(=O)N(C)C)c1)c1ccccc1	x	-3%	x	-19%	-2%	0%	52%	x

The final six compounds of the part above come first, to join the parts.
SMILES	Cruzain inh noDet	Marburg entry inh	Cruzain inh Det	2A StopGo	NS1 inh	SARS PLP yeast	RE007 growth inh	LASV entry inh
CCn1ncc([C@@H]2C[C@H]3CN(Cc4cccc(Cl)c4)C(=O)[C@]34CCCN24)c1C	x	8%[46.1 µM]	x	-16%	3%	0%	-21%	-9%
COc1ccccc1NC(=O)c1ccc(C)c(S(=O)(=O)N2CCCCC2)c1	x	-27%	x	u	2%	6%	9%	u
FC(F)(F)c1cccnc1Oc1ccc(C2=NCCS2)cc1	x	-8%[46.1 µM]	x	28%	-3%	0%	-6%	3%
O=C(CSc1nnc(CNC(=O)c2cccc(C(F)(F)F)c2)o1)NCC1CCCO1 (stereo not drawn)	x	u	x	5%	10%	2%	-5%	1%
O=C(N/N=C/c1cn[nH]c1-c1ccc(Cl)cc1)c1ccc([N+](=O)[O-])cc1	x	3%[46.1 µM]	x	-13%	-3%	0%	-1%	7%
CC(C)N(C(=S)Nc1cccc(S(=O)(=O)N(C)C)c1)c1ccccc1	x	-3%	x	-19%	-2%	0%	52%	x
Cc1nn(-c2ccccc2)c2nc3c(cc12)C(=O)CCC3	14%	u	-8.7%	-6%	-6%	12%	56%	-7%
Cc1cc(C)nc(/N=C(\N)Nc2cccc(OCc3ccccc3)c2)n1	x	x	x	32µM*	4%	1%	-2%	x
Cc1ccc(C(=O)NCC(c2ccco2)N2CCc3ccccc3C2)cc1 (stereo not drawn)	x	-4%	x	7%	x	-10%	5%	-9%
C=C1CCC[C@]2(C)C[C@H]3OC(=O)C(CNCC(C)C)[C@H]3CC12 (stereo partly drawn)	x	x	x	0%	13%	0%	u	x
Cc1ccc(S(=O)(=O)NC(=O)NCc2ccccn2)cc1	4%	2%	-0.9%	x	5%	7%	-10%	-2%
O=c1ccn(Cc2ccccc2)c(SCc2ccccc2)n1	x	u	x	-22%	x	x	12%	1%
O=C(Cn1c(NCCO)nc2ccccc21)NCCc1ccc(F)cc1	6%	u	3.9%	0%	1µM*	u	-1%	2%
Cc1cc(C)n(Cc2ccc(C(=O)N/N=C/c3ccc(-c4ccc([N+](=O)[O-])cc4)o3)o2)n1	x	u	x	-24%	0%	10%	4%	-12%
CCOC1=C(C#N)CC2(CC1)c1ccccc1-c1ccccc12	x	u	x	-22%	x	x	2%	-3%[46.1 µM]
C=CCOc1ccc(/C=N/NC(=O)CN2CCOCC2)cc1OCC	x	u	x	-5%	1%	-3%	-6%	-5%[46.1 µM]
COc1ccc(C2C(C#N)=C(N)N(c3ncn[nH]3)C3=C2C(=O)CCC3)cc1 (stereo not drawn)	x	u	x	-3%	x	0%	-16%	4%
Cc1cc(=O)[nH]c(SCC(=O)Nc2cccc(C(F)(F)F)c2)n1	10%	1%	2.7%	-12%	3%	0%	0%	-16%
CCN(CC)CCn1c2ccccc2c2nc(C)sc21	-9%	-7%	-1.2%	2%	-3%	-4%	-1%	-6%
O=C1NC(=O)/C(=C\c2ccc(Cl)cc2Cl)N1	x	5%	x	-6%	x	x	5%	-3%
O=C(CSc1ccccn1)Nc1ccc(N2CCOCC2)cc1	x	-1%	x	39%[activator]	4%	4%	-5%	7%
O=C(Cn1c(=O)oc2ccccc21)N1CCCC1	x	u	x	0%	1%	1%	14%	1%[46.1 µM]
Cc1c(Cl)c(C(F)(F)F)nn1CC(=O)NCc1ccccc1	-3%	-6%	-0.9%	x	1%	-5%	-1%	3%
O=c1cc(N2CCC3(CC2)OCCO3)[nH]c(=O)n1-c1ccc(Br)cc1	-2%	3%	-0.2%	1%	1%	-9%	-7%	u
CC1CCc2nc3ccc(S(=O)(=O)N4CCC(C(=O)NC(C)c5ccccc5)CC4)cc3c(C(=O)O)c2C1 (stereo not drawn)	x	x	x	5%	19%	-3%	16%	x
CN(/N=C/c1ccccc1O)C(=S)c1ccccc1	x	u	x	47%[activator]	-6%	-2%	-7%	18%
CN(C)C(=S)SCC(=O)Nc1cccc(C(F)(F)F)c1	-3%	6%	-5.4%	3%	5%	-16%	22%	2%
CCC12CC3CC(C1)CC(C(=O)NNC(N)=O)(C3)C2	x	u	x	17%	6%	1%	-2%	-2%[46.1 µM]
Cc1cccnc1N(C(=O)Nc1cccc(Cl)c1)C1=NCC(C)(C)S1	-4%	-8%	-7.1%	2%	-37%	u	-23%	3%
COc1ccc(C2C3=C(CCCC3=O)N(CC(=O)O)C3=C2C(=O)CCC3)cc1	x	x	x	8%	5%	1%	-2%	x
COc1ccc(-c2cc3ccccc3c(=O)o2)cc1	23%	x	-0.5%	-4%&7%	x	x	0%	x
COc1ccc(N2C(=O)CC(NNc3ncc(Cl)cc3Cl)C2=O)cc1 (stereo not drawn)	x	-11%[46.1 µM]	x	-1%	x	-5%	-17%	1%
C=CCN(CC=C)C(=O)CCN1CC1C (stereo not drawn)	x	-29%[46.1 µM]	x	3%	x	x	-6%	11%[46.1 µM]
Oc1ccc(C=NCCc2ccccc2)cc1	x	x	x	-18%	-8%	1%	-1%	x
COC(=O)c1ccccc1NC(=O)Cn1cc(Br)cn1	1%	6%	1.3%	-14%	u	-7%	-18%	6%
CC(C)C(=O)Nc1nnc(CCN2CCCCC2)s1	-3%	0%	4.1%	13%	17%	9%	13%	18%
Cc1c(NC(C)C)c(=O)n(-c2ccccc2)n1C	-2%&-9%	x	6.7%&-2.2%	-15%&1%	x	x	7%[18.4 µM]	x
CC(C)COc1ccc(C(=O)N2CCCCC2CCN2CCCCC2)cc1 (stereo not drawn)	-13%	-5%[46.1 µM]	1.4%	-6%	x	x	x	u
CCCC1(c2ccccc2)NC(=O)N(CC(=O)c2[nH]c(C)c(C(=O)OCC)c2C)C1=O (stereo not drawn)	1%	u	-7.0%	0%	u	0%	25%	u
ClCC1CSC(=NC23CC4CC(CC(C4)C2)C3)O1 (stereo not drawn)	x	x	x	-12%	-11%	-2%	35%	x
CCCC1=C(C(=O)OCC)C(c2ccc(OC)c(C)c2OC)C(C#N)=C(N)O1 (stereo not drawn)	-7%	-13%	-12%	0%	-21%	-26%	0%	0%
O=C(/C=C/c1c[nH]c2ccccc12)c1ccccc1	-4%	u	-19%	51%[activator]	-34%	-80%	u	0%
CS(=O)(=O)Nc1ccc(C(=O)Nc2ccc3ccccc3c2)cc1	x	18%	x	66%[activator]	8%	9%	4%	2%
CCOc1ccc(C(C(=O)NC2CCCCC2)N(C(=O)c2ccccn2)c2cccnc2)cc1 (stereo not drawn)	x	28%[46.1 µM]	x	-12%	4%	0%	4%	4%
